YopH PTP inh: blocks Yersinia enterocolitica YopH tyrosine phosphatase. fluorescence Ex485/Em525. inhibition, %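 (about 10 µM by stock and volumes)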. 0.16% of 140,000 active. AID 898;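 active means inhibition of 50% or more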;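 further: controls were vehicle for no effect and minimum signal wells for full effect; inactives centre near -20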
Mtb growth: M. tuberculosis H37Rv growth inhibitors, H37Rv strain (AID 1626) | inhibition, % at 10 µM, or IC50 in µM where a hit was titrated | M. tuberculosis H37Rv growth inhibition; higher % means a stronger effect | 0.95% of 220,000 active;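 active means confirmed in a dose series; inconclusive means inhibition above 80% but not taken into the dose series; inactive means below 80% or under 30% at every dose of the series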;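 further: bacteria incubated seven days before Alamar blue readout; 0% = bacteria only wells and 100% = bacteria with antibiotic wells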
Arbovirus anti: antivirals against arbovirus infection. arbovirus infection cell-based antiviral screen. inhibition, % at 10 µM. 0.37% of 200,000 active. AID 1251;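 active means inhibition from about 30%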;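 further: bluetongue infection of BSR cells; cell survival read as ATP light after 72 h; 0% = infected wells without compound and 100% = uninfected wells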
Mtb bLac sens: beta-lactam sensitization of Mtb H37Rv; M. tuberculosis H37Rv growth with meropenem, percent inhibition; hits of this screen are not shown here; inhibition, % at 25 µM; 0.27% of 330,000 active; AID 434955;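 active means about 74% or more and at least 40 points above the plate without the antibiotic, then above 30% in a dose series; inconclusive means first-round hits that could not be retested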;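 further: growth measured after seven days incubation then overnight dye step; 0% = bacteria only wells and 100% = bacteria with antibiotic; twin plates without the antibiotic show which effects depend on it; some results filed as inactive read as strong as hits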
RecA intein inh: Mtb RecA intein splicing inhibition. 0.75% of 290,000 active. AID 2221. inhibition, %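 (about 9 µM by stock and volumes)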. P9WHJ3. cell-free RecA intein splicing, fluorescence; in the data active means inhibition above about 30%; inconclusive means no clear call, values can overlap the other calls;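 further: 0% = vehicle wells and 100% = reference inhibitor control wells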
Target sequence (P9WHJ3 whole entry, looked up): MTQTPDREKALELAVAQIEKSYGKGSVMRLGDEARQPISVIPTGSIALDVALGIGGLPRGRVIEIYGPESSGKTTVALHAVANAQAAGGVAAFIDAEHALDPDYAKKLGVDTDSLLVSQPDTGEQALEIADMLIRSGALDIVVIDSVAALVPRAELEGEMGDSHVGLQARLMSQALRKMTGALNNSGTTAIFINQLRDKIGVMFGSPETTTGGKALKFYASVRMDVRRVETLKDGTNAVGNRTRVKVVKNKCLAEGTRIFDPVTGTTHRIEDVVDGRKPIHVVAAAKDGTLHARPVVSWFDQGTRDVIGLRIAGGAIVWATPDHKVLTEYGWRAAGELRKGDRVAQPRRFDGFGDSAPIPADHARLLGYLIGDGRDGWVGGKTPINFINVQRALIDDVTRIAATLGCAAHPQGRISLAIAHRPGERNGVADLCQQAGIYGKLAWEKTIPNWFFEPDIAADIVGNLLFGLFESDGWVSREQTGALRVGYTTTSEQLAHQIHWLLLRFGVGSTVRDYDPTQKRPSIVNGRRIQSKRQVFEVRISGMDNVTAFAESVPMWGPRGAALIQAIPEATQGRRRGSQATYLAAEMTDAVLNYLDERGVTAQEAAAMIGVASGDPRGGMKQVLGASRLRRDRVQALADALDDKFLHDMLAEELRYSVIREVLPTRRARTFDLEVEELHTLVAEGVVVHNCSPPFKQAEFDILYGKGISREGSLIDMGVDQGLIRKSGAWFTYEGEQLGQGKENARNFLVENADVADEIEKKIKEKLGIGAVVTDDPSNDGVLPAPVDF
Arbovirus anti repeat: recorded beside Arbovirus anti, whose call it bears; inhibition, %; measured here: 10K subset replicate screen; many hits read low in the repeat;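 first of two repeat runs on a subset; 0% = infected and 100% = uninfected wells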
Active calls of the source: *; ? = inconclusive; nt = no result given. An excerpt. The share of hits here may be higher or lower than overall.

SMILES | YopH PTP inh | Mtb growth | Arbovirus anti | Mtb bLac sens | RecA intein inh | others
CCOC(=O)C1CCCN(c2c(NCCc3ccc(C)cc3)c(=O)c2=O)C1 (stereo not drawn) | nt | -6% | nt | -3 | -0.6
CCN1CCN(c2nc(C)c3c(n2)CCCC3=O)CC1 | 20 | -12% | -1 | -7 | 0.6
COCCCNc1nc2ccccc2nc1NS(=O)(=O)c1ccc(F)cc1 | nt | nt | nt | 1 | -2.3
Cc1sc2c(c1C)c(=O)n(-c1cccc(C(F)(F)F)c1)c(=O)n2CC(=O)NCc1ccco1 | 7 | -6% | -4 | ? | -3.7
COc1ccc(N2CCN(C(=O)NCc3ccc(OC)c(Cl)c3)CC2)cc1 | nt | 3% | 3 | -2 | -3.6
N/C(=N\OC(=O)c1ccc([N+](=O)[O-])cc1)c1ccc(Br)cc1 | nt | nt | nt | 71 | 2.3
CSCCC(NS(=O)(=O)c1ccc(C)c(C(=O)O)c1)C(=O)O (stereo not drawn) | nt | 0% | 11 | -7 | 1.8
Cc1ccc(CN(Cc2cccnc2)C(=S)Nc2cccc(Cl)c2C)cc1 | nt | 6% | 12 | -4 | nt
NS(=O)(=O)c1ccc(N2N=C(c3ccccc3)CC2c2ccc(F)cc2)cc1 (stereo not drawn) | -20 | 13% | -39 | 13 | -27
Cc1ccc(NC(=O)C(=O)NCC2CCCO2)cc1 (stereo not drawn) | nt | 1% | 6 | 8 | 3.6
O=C(CSc1nnc(-c2ccc(C(F)(F)F)cn2)s1)c1ccccc1 | nt | -10% | nt | 4 | 0.8
CCN(CC(=O)NCc1ccc(Cl)cc1)C(=O)C(C)Sc1ccccc1 (stereo not drawn) | nt | nt | nt | -11 | 0.2
O=Cc1ccccc1OS(=O)(=O)c1ccccc1 | -29 | 2% | -4 | -10 | 3.1
COc1ccc(Cn2cc(F)c(=O)n(CCC(C)C)c2=O)cc1[N+](=O)[O-] | -20 | 5% | 4 | -7 | -0.1
CC1=NN(c2ccccc2)C(=O)C1C(=O)c1cc([N+](=O)[O-])cc([N+](=O)[O-])c1 (stereo not drawn) | nt | -1% | 0 | -3 | 12
Cc1cccc(-n2nnc(C(=O)NC3CCCc4ccccc43)c2N)c1 (stereo not drawn) | -28 | 1% | -35 | 10 | 0.4
Cc1ccc(NC(=O)CCn2c(=O)[nH]c3ccsc3c2=O)cc1C | nt | nt | nt | -1 | -2.5
CC(C)c1ccc(OCC(=O)NCc2ccco2)cc1 | -2 | 0% | -8 | -5 | 0.7
CCOC(=O)/C=C/C(=O)Nc1nccs1 | -20 | >100µM* | 5 | 59 | -1.8
O=C(NCCc1ccccc1)C1CCN(C(=O)c2ccc([N+](=O)[O-])cc2)CC1 | nt | -3% | 6 | -7 | 1.3
CN(C)S(=O)(=O)c1cc(NC(=O)COC(=O)CCSc2ccc(Cl)cc2)ccc1Cl | -52 | 0% | -1 | -3 | 0.7
c1csc(-c2nnc3ccccn23)c1 | -19 | -6% | 7 | 1 | nt
NS(=O)(=O)c1ccc(NC(=S)NC2CC2)cc1 | nt | 6% | 13 | -2 | 1.9
COc1cc(S(=O)(=O)NCc2ccccn2)ccc1Cl | nt | nt | nt | -7 | -1.0
Nc1cc2nn(-c3ccccc3)nc2cc1Cl | nt | ? | 2 | nt | 63*

3 entries from above, sorted by molecular weight, ascending.
SMILES | YopH PTP inh | Mtb growth | Arbovirus anti | Mtb bLac sens | RecA intein inh | others
COc1cc(S(=O)(=O)NCc2ccccn2)ccc1Cl | nt | nt | nt | -7 | -1.0
CSCCC(NS(=O)(=O)c1ccc(C)c(C(=O)O)c1)C(=O)O (stereo not drawn) | nt | 0% | 11 | -7 | 1.8
COc1ccc(N2CCN(C(=O)NCc3ccc(OC)c(Cl)c3)CC2)cc1 | nt | 3% | 3 | -2 | -3.6

Looked up one by one from the entries so far:
SMILES | YopH PTP inh | Mtb growth | Arbovirus anti | Mtb bLac sens | RecA intein inh | others
COCCCNc1nc2ccccc2nc1NS(=O)(=O)c1ccc(F)cc1 | nt | nt | nt | 1 | -2.3
c1csc(-c2nnc3ccccn23)c1 | -19 | -6% | 7 | 1 | nt

The listing continues:
SMILES | YopH PTP inh | Mtb growth | Arbovirus anti | Mtb bLac sens | RecA intein inh | others
O=Cc1ccc(-c2ccccc2OC(F)(F)F)o1 | -6 | -7% | 6 | -4 | 8.3
CCOC(=O)c1ccc(Oc2c(C)oc3c(CN4CCN(C)CC4)c(O)ccc3c2=O)cc1 | -52 | -11% | 11 | -16 | -1.7
Cc1ccc(C(C(=O)NCc2ccco2)N(C(=O)CNC(=O)c2cccs2)c2ccc(C)cc2C)cc1 (stereo not drawn) | -44 | 6% | -17 | -3 | -1.1
CCCCNC(=S)Nc1ccc(Oc2ccccc2)cc1 | nt | 25% | -1 | 81 | 6.9
COc1cccc(N2CCN(C(=O)CCc3nnc4ccc(N5CCOCC5)nn34)CC2)c1 | nt | nt | nt | -9 | -3.2
O=C(c1nn2c(C(F)(F)F)cc(-c3cccs3)nc2c1Cl)N1CCCc2ccccc21 | -32 | 0% | -15 | -1 | -1.9
CC(C)(C)NC(=S)Nc1cccc(C(F)(F)F)c1 | nt | 0% | 10 | -1 | 13
CCOC(=O)C1=C(C)OC(N)=C(C#N)C1c1ccc(OC)c(C)c1OC (stereo not drawn) | -21 | -5% | -4 | 7 | -1.9
N#Cc1c(NC(=O)COC(=O)c2ccc(S(=O)(=O)N3CCCC3)cc2)sc2c1CCCCC2 | -27 | 12% | -11 | -4 | 3.3
Cc1ccc(NC(=O)C(=O)Nc2ccccn2)cc1 | -29 | 5% | 2 | 1 | 3.4
CCOC(=O)Cc1nnc(NC(=O)c2ccco2)s1 | -23 | -4% | 3 | -3 | -1.3
CNCc1c(OCc2ccc(F)cc2)ccc2ccccc12 | nt | 7% | -9 | -5 | 1.9
Cc1ccc(-c2nc(SCC(=O)NCC3CCCO3)c(-c3ccc(C)cc3)[nH]2)cc1 (stereo not drawn) | -33 | 11% | -8 | 4 | 2.8
CSc1ncccc1C(=O)OCC(=O)NCc1ccc2c(c1)OCO2 | nt | -3% | 9 | -10 | -2.4
Cc1ccc(C(=O)NC(=S)Nn2cnnc2)cc1 | -10 | 5% | 6 | -10 | 2.4
C/C(CC(=O)N1CCN(C=O)CC1)=N\NC(=O)c1ccc([N+](=O)[O-])cc1 | nt | -1% | 1 | 1 | 16
Cc1c(CC(=O)N[C@@H](C)C(=O)O)c(=O)oc2c(C)c3occ(-c4ccccc4)c3cc12 | nt | nt | nt | 3 | -1.1
COc1ncccc1C(=O)N1CCCC(N2CCN(c3cccc(Cl)c3)CC2)C1 (stereo not drawn) | nt | nt | nt | -10 | 1.1
O=C(NC(=O)c1ccccc1)Nc1ccccn1 | nt | nt | nt | -15 | -1.1
Cn1cc(C(=O)Nc2ccc(Cl)c(Cl)c2)cn1 | nt | nt | nt | 5 | 0.6
NCCCC[C@H]1CNC(=O)C(=O)N1CCCCC1CCCCC1 | nt | 3% | nt | -3 | -2.3
Cc1cc(Cl)ccc1OCC(=O)N(Cc1ccco1)C1CCS(=O)(=O)C1 (stereo not drawn) | nt | 4% | nt | 4 | -2.1
COc1ccc(CCNC(=S)Nc2cccc(C)c2C)cc1 | -7 | 2% | 11 | -17 | 3.4
CN(C)CCCN1C(=O)CSC1c1ccccc1 (stereo not drawn) | 1 | -2% | 5 | -1 | 2.1 | Arbovirus anti repeat=4
CC(C)N1CCN(Cc2nc(-c3ccccc3)cs2)CC1CCO (stereo not drawn) | nt | 8% | -3 | -6 | -3.5

Carrying on.
SMILES | YopH PTP inh | Mtb growth | Arbovirus anti | Mtb bLac sens | RecA intein inh | others
CCn1c(SCC(=O)N(C)C)nc2cc(S(=O)(=O)N3CCCCC3)ccc21 | nt | nt | nt | -5 | -3.3
Cc1ccc(S(=O)(=O)N2CCC(C(=O)NCCCN3CCCC3=O)CC2)cc1C | nt | nt | nt | -5 | -2.7
Nc1ccccc1OCCOCCOc1ccccc1N | -48 | -9% | -8 | -13 | 1.8
NS(=O)(=O)c1cccc(NS(=O)(=O)c2ccc(/C=C/C(=O)O)cc2)c1 | nt | -11% | nt | -6 | 0.3
CCOc1cc(NC(=O)c2ccco2)c(OCC)cc1NC(=O)c1cc(OC)c(OC)c(OC)c1 | -24 | -6% | -10 | 0 | -9.5
COc1ccc(C(O)P(=O)(OC(C)C)OC(C)C)cc1OC (stereo not drawn) | nt | nt | nt | -3 | -3.5
CCOC(=O)C1(Cc2ccc(Cl)cc2)CCN(C(=O)CCc2ccncc2)CC1 | nt | 9% | 6 | 0 | 1.2
O=S(=O)(Nc1ccc(-n2cccc2)cc1)c1ccc(Cl)c(Cl)c1 | nt | 3% | nt | 0 | 13
CC(/C=N\Nc1nnc2c(n1)[nH]c1c(C)cccc12)=C\c1ccco1 | -23 | -1% | -24 | 26 | -3.7
COc1ccc(Cc2nc3ccc(C(=O)NCc4cc(C)no4)cc3o2)cc1 | nt | nt | nt | -3 | -2.1
CC(Oc1ccccc1F)C(=O)NCCN1CCCCC1 (stereo not drawn) | -16 | -1% | -1 | -12 | 0.7 | Arbovirus anti repeat=4
Cc1cccc([C@@H]2[C@@H]3C(=O)N(Cc4ccccc4)C(=O)[C@@H]3[C@]3(C)C(=O)N(c4ccc(Br)cc4)C(=O)N23)c1 | nt | nt | nt | 36 | 7.7
Cn1cnc([N+](=O)[O-])c1SCC(O)CN1CCCCC1 (stereo not drawn) | nt | 2% | 4 | -7 | -2.3
O=C(Nc1ccc(N2CCN(C(=O)c3ccco3)CC2)cc1)C(c1ccccc1)c1ccccc1 | -10 | 12µM* | 3 | 99 | 13
CCOC(=O)C1Cn2c(nc3c(c2=O)C(C)(C)Cc2ccccc2-3)S1 (stereo not drawn) | -14 | -4% | 11 | 2 | 0.5 | Arbovirus anti repeat=4
N=c1c2c3c(sc2ncn1CCCN1CCOCC1)CCCCC3 | -45 | -7% | -6 | 0 | -2.9
Cc1ccc(S(=O)(=O)CCC(=O)N(C)c2c(N)n(Cc3ccccc3)c(=O)[nH]c2=O)cc1 | nt | nt | nt | -5 | -0.8
O=C(NC1CCCCC1)C(c1cccs1)N(Cc1cccs1)C(=O)c1cccs1 (stereo not drawn) | -2 | 0% | -8 | -6 | 0.2
O=C(NCc1cccc(C(F)(F)F)c1)C1CC(c2ccccc2F)=NO1 (stereo not drawn) | nt | 1% | nt | -5 | -2.1
NS(=O)(=O)c1ccc(CCNC(=O)C(=O)Nc2cc3c4c(c2)CC(=O)N4CCC3)cc1 | nt | nt | nt | -7 | 11
CCOC(=O)C(CC)n1cnc2c(nnn2-c2ccc(OC)cc2)c1=O (stereo not drawn) | -50 | 7% | 4 | 3 | -3.0
O=C(c1ccc2ccccc2c1)N1CCN(c2ccc(O)cc2)CC1 | -43 | -7% | -36 | 0 | -1.6
COc1cc(Br)c(S(=O)(=O)Nc2c(C)n(C)n(-c3ccccc3)c2=O)cc1OC | -1 | -7% | -2 | -4 | -4.0
COc1ccc(NC(=O)CN2C(=O)CSc3ncccc32)cc1 | nt | nt | nt | -5 | -2.2
O=C(O)C1CCCN1C(=O)C12CC3CC(CC(C3)C1)C2 (stereo not drawn) | nt | nt | nt | -1 | -2.6
COc1cccc(NC(=O)Nc2cccc(C)n2)c1 | nt | nt | nt | 2 | -1.1

Structural class: those above with an NH in an aromatic ring
SMILES | YopH PTP inh | Mtb growth | Arbovirus anti | Mtb bLac sens | RecA intein inh | others
Cc1ccc(NC(=O)CCn2c(=O)[nH]c3ccsc3c2=O)cc1C | nt | nt | nt | -1 | -2.5
Cc1ccc(-c2nc(SCC(=O)NCC3CCCO3)c(-c3ccc(C)cc3)[nH]2)cc1 (stereo not drawn) | -33 | 11% | -8 | 4 | 2.8
CC(/C=N\Nc1nnc2c(n1)[nH]c1c(C)cccc12)=C\c1ccco1 | -23 | -1% | -24 | 26 | -3.7
Cc1ccc(S(=O)(=O)CCC(=O)N(C)c2c(N)n(Cc3ccccc3)c(=O)[nH]c2=O)cc1 | nt | nt | nt | -5 | -0.8

Structures from the list above that have a COOH group (four):
SMILES | YopH PTP inh | Mtb growth | Arbovirus anti | Mtb bLac sens | RecA intein inh | others
CSCCC(NS(=O)(=O)c1ccc(C)c(C(=O)O)c1)C(=O)O (stereo not drawn) | nt | 0% | 11 | -7 | 1.8
Cc1c(CC(=O)N[C@@H](C)C(=O)O)c(=O)oc2c(C)c3occ(-c4ccccc4)c3cc12 | nt | nt | nt | 3 | -1.1
NS(=O)(=O)c1cccc(NS(=O)(=O)c2ccc(/C=C/C(=O)O)cc2)c1 | nt | -11% | nt | -6 | 0.3
O=C(O)C1CCCN1C(=O)C12CC3CC(CC(C3)C1)C2 (stereo not drawn) | nt | nt | nt | -1 | -2.6

Source: PubChem BioAssay (several laboratories)
